MgrA DNA FP = alters Staphylococcus aureus MgrA binding to DNA | inhibition, %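 (about 10 µg/mL by stock and volumes)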 | fluorescence polarization | AID 602314 | 84,000 tested, 0.13% active;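 active means above 50% in either of two replicates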;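 further: 0% = protein plus DNA without compound and 100% = DNA alone without protein; higher means less MgrA bound to DNA so lower polarization; one replicate is shown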
S aureus helic = blocks Staphylococcus aureus DNA helicase; AID 485395; inhibition, %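 (tested at about 80 µM)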; purified S. aureus helicase, fluorescence unwinding assay; about half of the hits fall short of the stated cut; 120,000 tested, 0.05% active;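 active means both duplicates at 50% or more, or one of them with a favoured structure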;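 further: 0% = mean of negative control wells and 100% = mean of positive control wells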
* marks the source's active call; other numbers are inactive results; · = no result given; & = joins results of further samples. Some of the compounds tested, so the mix of outcomes need not match the whole.

SMILES	MgrA DNA FP	S aureus helic
CC(N=C1CC(C)(C)CC(=O)/C1=C(O)/C=C/c1ccccc1)C(=O)O (configuration not stated)	-4.7	1
O=C1CCCC(O)=C1C=Nc1ccccc1	-3.6	·
CCCCn1nc(C(=O)Nc2ccccc2)c2ccccc2c1=O	·	-2
c1ccc(Cn2nnnc2C(c2cccnc2)N2CCN(c3ccccc3)CC2)cc1 (configuration not stated)	-2.9	7
CSC(N)=Nc1ccc(Cl)cc1	-2.4&-1.4	·
CC(Sc1nnnn1-c1ccccc1)C(=O)Nc1nccs1 (configuration not stated)	·	21
CCc1cc2c(-c3ccccc3)cc(=O)oc2cc1O	·	17
CC(Sc1nnc(-c2ccccc2Br)o1)C(=O)NC1(C#N)CCCCC1 (configuration not stated)	·	17
CCc1ccc(NC(=S)NC(=O)c2cccs2)cc1	1.8	6
CC(Oc1cccc2ccccc12)C(=O)NN (configuration not stated)	·	-1
C=CCn1cnc2c(c1=O)c1nc3ccccc3nc1n2-c1cccc(Br)c1	2.4	4
CCSc1nnc2c(n1)OC(c1cc(O)ccc1Br)Nc1ccccc1-2 (configuration not stated)	·	-42
CN(C)c1ccc(C(=O)N/N=C/c2cc(Cl)cc(Cl)c2O)cc1	1.4	·
COC(=O)c1cn(C(C)C(=O)NCc2ccco2)c2ccccc12 (configuration not stated)	-0.1	5
COc1ccc(-c2nnc(NCc3nc4ccccc4[nH]3)c3ccccc23)cc1	-1.2	·
CC(C)=NNC(=O)c1cccn1C	·	2
CCN(C(=O)C(C)Nc1ccc(OC)cc1OC)C1CCCCC1 (configuration not stated)	·	-14
Cn1c(CSc2cccs2)nnc1SCC(=O)c1ccccc1	-0.2	·
C=C1SC(Nc2cccc(OC)c2)=NC1(C)C	0.7	·
O=C(OCn1nnc2ccccc2c1=O)C1CC(O)CN1S(=O)(=O)c1ccc(Cl)cc1 (configuration not stated)	·	-11
COc1ccc(-c2csc3ncnc(-n4nc(C)cc4N)c23)cc1	·	-19
CCCN1CC=C2C(C#N)=C(N)C(C#N)(C#N)C(c3ccc(F)cc3F)C2C1 (configuration not stated)	32	-20
Cc1ccc(S(=O)(=O)NC(=O)NCC2CCN(C(=O)OC(C)(C)C)CC2)cc1	-3.8	·
CC1CC(C)CC(S(=O)(=O)N2CCC(C(=O)O)CC2)C1 (configuration not stated)	·	2
COc1nc2c(c(-c3ccc[nH]3)c1C#N)Cc1ccccc1-2	-0.2	·
O=C1S/C(=C/c2ccccc2F)C(=O)N1CNc1cccc(Br)c1	-1.5	·
CC(=O)Oc1ccc2c(=O)c(-c3ccccc3C)c(C)oc2c1C	2.6	8
CCN1C(=O)c2cccc3c(S(=O)(=O)N4CCC(C)CC4)ccc1c23	·	-14
CCS(=O)(=O)N1CCNCC1	-0.8	3
Cc1ccccc1COc1ccc2oc(-c3ccco3)cc(=O)c2c1	5.3	-17
O=C(O)CCN1C(=O)/C(=C/c2ccc(Br)cc2)SC1=S	0.4	·
Clc1ccc(-c2nnc(NCCN3CCCC3)c3ccccc23)cc1	-0.9	·
N#Cc1c(/N=c2\oc3ccc(Br)cc3cc2C(N)=O)sc2c1CCCC2	0.6	·
C/C(=N\NC(=O)COc1cccc(Br)c1)c1ccco1	·	-1
Cc1ccc(NC(=O)c2cc(-c3cccs3)nc3ccccc23)nc1	0.1	-5
CC(C)(C)CC(C)(C)c1ccc(OCOCCOCCO)c(Cc2cc(C(C)(C)CC(C)(C)C)cc(Cc3cc(C(C)(C)CC(C)(C)C)ccc3OCOCCOCCO)c2OCOCCOCCO)c1	2.1	·
O=C(NC(=O)N(Cc1ccccc1)C1CC2CCC1C2)c1c(Cl)cccc1Cl (configuration not stated)	1.4	·
O=C(Nc1ccc2c(c1)C(=O)NC2=O)C1=COCCO1	·	7
Cc1nc2ccc(NC(=O)NC(=O)c3ccccc3Cl)cc2o1	·	-6
CN1CN2C(=O)N3CN(C)CN4C(=O)N(C1)C2C34 (configuration not stated)	-0.8	-3
COc1cc(OC)cc(C(=O)OCCN2C(=O)c3cccc4c(N5CCCCC5)ccc(c34)C2=O)c1	-0.7	·
CCOC(=O)c1cc2c(c(CSc3nc4ccccc4c(=O)n3Cc3cccs3)c1)OCOC2	1.1	-6
CC(C)n1nccc1NC(=NC1CC1)c1ccccc1	·	15
CN=C(NO)c1c(Cl)cccc1Cl	0.4	·
CCn1c(SCc2nc3cc(OC)c(OC)cc3c(=O)[nH]2)nc2ccccc21	·	5
CCN(CC)C(=O)CSc1nc(-c2ccco2)cc(C(F)(F)F)c1C#N	-1.2	19
Cn1nc(Oc2nc(N3CCCCC3)nc(N3CCCCC3)n2)ccc1=O	·	3
O=C(CN1CCOCC1)Nc1nc(-c2ccc3c(c2)CCN3S(=O)(=O)c2ccccc2)cs1	-2.7	7
CCOC(=O)N1CCN(C(=O)c2ccc3c(=O)[nH]c4c(C(=O)NC(C)C)sc(=S)n4c3c2)CC1	·	21
Cc1nn(CC(=O)O)c(C)c1Cl	-1.4	4
Next structures follow.
SMILES	MgrA DNA FP	S aureus helic
O=C(O)CCCC(=O)Nc1ccn(-c2ccccc2)n1	·	2
Cc1cccc(C)c1NC(=O)CBr	-0.2	·
COc1ccccc1-n1c(SC)nc(O)cc1=O	·	10
N#CCC(=O)N(Cc1ccccc1F)C(=O)NC1CCCCC1	3.3	·
O=C1ON=C(c2ccccc2)/C1=C\c1ccc2c(c1)OCO2	24	4
COC(=O)c1ccc(COC(=O)c2ccc(-n3cnnn3)cc2)o1	·	-6
CCOC(=O)Cc1c(-c2ccccc2)c2cc(C)ccc2[nH]c1=O	·	6
O=c1c2ccccc2nc2n1CCCN2	·	35
Cn1ccc(NS(=O)(=O)c2ccc(NS(=O)(=O)c3ccc(Cl)cc3)cc2)n1	1.9	·
COc1cc2c(cc1OC)CN(C(=O)c1cc(=O)c3ccccc3o1)CC2	·	-24
Cc1c(C(=O)N(Cc2cccs2)C2CCCC2)sc2nc3n(c(=O)c12)CCCCC3	·	-19
Cc1ccc(-c2cc(C(F)(F)F)n3nc(C(=O)NCCCN4CCOCC4)c(Cl)c3n2)cc1	0.5	·
CC(Sc1nc(N)cc(N)n1)C(=O)Nc1cccc(Cl)c1 (configuration not stated)	0.5	3
CCCc1ccc2c(N)c(C(=O)c3ccc(Br)cc3)sc2n1	-1.9	-3
O=C(NC1C/C(=N\O)c2sccc21)C(F)(F)F (configuration not stated)	0.1	·
O=c1c(C=Nc2cc(Cl)ccc2O)c(O)n(C2CCCCC2)c(=O)n1C1CCCCC1	4.9	12
CCOC(=O)/C(C#N)=C/c1cn(CCC#N)nc1-c1ccccc1	·	-1
Nc1ccc(OC(F)(F)C(F)F)c(N)c1	2.9	-10
O=C(CN(CCO)C(=O)c1ccc(Cl)cc1)Nc1ccc(F)cc1	-1.6	-4
Cc1cc(Nc2ccc(Cl)cc2)c2ccccc2n1	-2.0	2
Ic1ccc(-c2ncc3ccccn23)cc1	·	-4
Cc1cc(=O)oc2cc(OCC(=O)N(C)C)ccc12	-2.8	11
Cc1cc2c(cc1C)C(Nc1ccccc1)=NC(C)(C)C2	4.0	3
CCOc1ccc(CC(=O)O)cc1OCC	-1.4	4
O=C1CSc2ccccc2N1Cc1n[nH]c(=S)n1Cc1ccccc1	·	13
O=C(COC(=O)c1cccc2ccccc12)c1ccc(F)cc1	-1.9	-21
O=C(Cn1c(=O)n(-c2cccc(Cl)c2)c(=O)n1CC(=O)N1CCCCC1)N1CCCCC1	·	-30
CCOc1cccc(=O)c2c(C)[nH]c(C)c12	·	-14
COc1ccc(-c2nc(CN3CCC(C(=O)NC(C)C)CC3)c(C)o2)cc1OC	-1.8	13
CSC(SC)=C(C#N)C(=O)C1CC1	12	·
CCOC(=O)c1c(C)nc2c(C)cccn12	-1.4	·
CSc1ccc(OC(=O)Nc2ccc(Cl)cc2)cc1	·	-11
Cc1cc(C(=O)CSc2nc3ccccc3c(=O)n2CC(C)C)c(C)n1-c1nccs1	·	-3
CCS(=O)(=O)c1ccc(O)c(NC(=O)Nc2ccccc2OC)c1	-0.2	·
CCc1cccc(CC)c1NC(C)=O	2.2	·
COC(=O)C1SC/C(=N\O)C1C(=O)OC (configuration not stated)	-2.5	·
CCN1CCN(C(=O)C2C3CCC(C3=C(C)C)C2C(=O)O)CC1 (configuration not stated)	31	6
COc1ccc(C(=O)OCC(=O)N2CCCC2=O)c(OC)c1	·	12
O=C1O/C(=C\N2CCN(c3ccccc3)CC2)c2ccccc21	0.7	·
Cc1sc2ncnc(OCC(=O)N3CCN(S(=O)(=O)c4ccc(Cl)cc4)CC3)c2c1C	·	-1
Cc1nc(=O)cc(-c2ccccc2)n1-c1ccccc1	-0.2	8
O=C(O)c1sc2ccccc2c1Nc1ccccc1	2.1	11
CC1CCCC(C)N1Cn1nc2sc3ccccc3n2c1=S (configuration not stated)	·	6
COC(=O)C12CC3CC(CC(C(=O)OC)(C1)C3=O)C2=O	3.1	-1
CCOC(=O)c1c(C)n(-c2ccccc2)c2ccc(OC(=O)c3ccc(S(=O)(=O)N(CC)CC)cc3)cc12	0.5	·
Cn1c(=N)n(CCCOc2ccc(F)cc2)c2ccccc21	-1.6	7
CS(=O)(=NS(=O)(=O)c1ccccc1)c1ccccc1 (configuration not stated)	2.6	0
CCOC(=O)N1CCC(NC(=O)Cn2nc(CC)n3c(cc4sc(CC)cc43)c2=O)CC1	-1.9	-3
O=c1c2ccccc2nnn1CN1CCCC1c1ccc2c(c1)OCCCO2 (configuration not stated)	·	-19
C=Cc1ccc(C=C)cc1	1.9	19
The results go on.
SMILES	MgrA DNA FP	S aureus helic
CNc1nc2cccnc2s1	-0.3	·
CC1CC2(C)CC(C)C1(COC(=O)Nc1ccccc1)CO2 (configuration not stated)	0.0	1
COC(=O)c1ccccc1NC(=O)c1ccccc1Cl	2.5	·
CCN(CC)P1(=O)OC(c2cc(OC)c(OC)c(OC)c2)=Nc2c1c(C)nn2-c1ccccc1 (configuration not stated)	·	-15
CC(C)C(=O)Nc1c2c(nn1C(C)(C)C)CS(=O)C2 (configuration not stated)	·	13
O=C(Nc1cccc(-c2cn3cccnc3n2)c1)c1ccccc1	·	8
O=C(NCC12CC3CC(CC(C3)C1)C2)N1CCN(CCO)CC1	-0.3	-3
CN(c1ccc(O)cc1)c1nc(O)c(C2=c3ccccc3=NC2=O)s1	2.8	26
CCN(CC)C(=O)/C=C/c1cccc2ccccc12	0.9	-9
O=C(Nc1ccc(N2CCN(Cc3ccccc3Cl)CC2)cc1)c1ccco1	-2.2	-3
Cc1ccccc1N=C1SCCCN1C(=O)c1ccc2c(c1)OCO2	·	37
CC1=C(C(=O)N(C)C)C(c2ccc(Br)cc2)n2c(nc3ccccc32)N1 (configuration not stated)	3.9	9
c1ccc2c(OCc3nn[nH]n3)cccc2c1	4.8	23
Cc1cc(N2CCC(NS(=O)(=O)c3ccc(Cl)cc3)CC2)nc(C)n1	-1.1	15
O=C(OCc1nnc(-c2ccccc2)o1)[C@@H]1CCCN1S(=O)(=O)c1ccc(Cl)cc1	·	-14
CCn1c2c(c3cc(OCC(C)C)ccc31)CCCC2=O	·	-17
Cc1nn(-c2ccccc2)c(Oc2ccc(F)cc2)c1/C=N/n1cnnc1	·	-5
CCN(CC)C(=O)C1c2ccccc2Oc2ccccc21	-0.9	-1
Cc1cc(C)n(-c2ccc(C(=O)Oc3ccc4c(c3)OCO4)cc2)n1	·	-10
CCN1CCCC1CNc1ncnc2sc3c(c12)CCC3 (configuration not stated)	·	11
COc1ccc(C(=O)Oc2ccc3cc(-c4nc5ccccc5s4)c(=O)oc3c2)cc1	-1.1	·
N#Cc1ccccc1NC(=O)CN1C(=O)c2ccccc2C1=O	-0.1	7
O=C(CC(NC1CCCC1)C(=O)O)Nc1cccc(Cl)c1 (configuration not stated)	·	-9
Cc1ccc(S(=O)(=O)NC(=NC2CCCCC2)c2ccccc2)cc1	0.3	11
c1ccc(-c2nonc2-c2ccccc2)cc1	0.8	6
Cc1cc(NC(=O)CSc2nnc(Cc3cccn3C)n2C)no1	·	-6

Among those listed so far, 15 contain two or more sulfur atoms:
SMILES	MgrA DNA FP	S aureus helic
CC(Sc1nnnn1-c1ccccc1)C(=O)Nc1nccs1 (configuration not stated)	·	21
CCc1ccc(NC(=S)NC(=O)c2cccs2)cc1	1.8	6
Cn1c(CSc2cccs2)nnc1SCC(=O)c1ccccc1	-0.2	·
O=C(O)CCN1C(=O)/C(=C/c2ccc(Br)cc2)SC1=S	0.4	·
CCOC(=O)c1cc2c(c(CSc3nc4ccccc4c(=O)n3Cc3cccs3)c1)OCOC2	1.1	-6
O=C(CN1CCOCC1)Nc1nc(-c2ccc3c(c2)CCN3S(=O)(=O)c2ccccc2)cs1	-2.7	7
CCOC(=O)N1CCN(C(=O)c2ccc3c(=O)[nH]c4c(C(=O)NC(C)C)sc(=S)n4c3c2)CC1	·	21
Cn1ccc(NS(=O)(=O)c2ccc(NS(=O)(=O)c3ccc(Cl)cc3)cc2)n1	1.9	·
Cc1c(C(=O)N(Cc2cccs2)C2CCCC2)sc2nc3n(c(=O)c12)CCCCC3	·	-19
O=C1CSc2ccccc2N1Cc1n[nH]c(=S)n1Cc1ccccc1	·	13
CSC(SC)=C(C#N)C(=O)C1CC1	12	·
Cc1cc(C(=O)CSc2nc3ccccc3c(=O)n2CC(C)C)c(C)n1-c1nccs1	·	-3
Cc1sc2ncnc(OCC(=O)N3CCN(S(=O)(=O)c4ccc(Cl)cc4)CC3)c2c1C	·	-1
CC1CCCC(C)N1Cn1nc2sc3ccccc3n2c1=S (configuration not stated)	·	6
CS(=O)(=NS(=O)(=O)c1ccccc1)c1ccccc1 (configuration not stated)	2.6	0

From PubChem
